Source: PubChem BioAssay
NPYLR7 ag: mosquito NPYLR7 agonism. HEK293T NPYLR7/Galpha15, GCaMP6s calcium fluorescence. activation, % at 10 µM. actives 0.15% (n = 270,000); in the data active = activation above about 40%;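 also: 0% = vehicle and 100% = reference agonist at the receptor; some compounds past the cut are filed as inactive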
NPYLR7 ag max-min: second read-out of NPYLR7 ag, no call of its own (marks repeat the call); activation, %; measured here: Max-Min RFU normalised activation; some inactives read as strong as hits;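 span of the calcium signal over five minutes; 0% = vehicle and 100% = native peptide agonist; compound fluorescence can raise it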
Numbers without * were called inactive; & = joins results of further samples. An excerpt (hit frequency here may not be typical).

SMILES	NPYLR7 ag	NPYLR7 ag max-min
O=C(NCCCN1CCOCC1)c1cc2n(n1)CCN(CC1CC1)C2=O	10	5
Cn1cc(C(CC(=O)N2CCC(n3c(=O)[nH]c4ccccc43)CC2)c2cccc(C(F)(F)F)c2)c2ccccc21 (stereo unspecified)	-16	-14
CCCc1nc(C(=O)N2CCN3C(=O)CNC(=O)C3C2)cs1 (stereo unspecified)	5	0
CN1CCOc2cc(C(=O)N[C@@H]3C[C@@H](CO)N(C)C3)ccc21	-3	-1
COc1ccc(CCN(C)C(=O)c2cc(-c3ccc([N+](=O)[O-])cc3)nn2-c2cccc(Cl)c2)cc1OC	-7	-2
O=C(O)CSc1nnc(-c2ccco2)o1	27	33
CCN1C(=O)N(CCCc2cccnc2)C(=O)C12CCN(Cc1cnc(-c3ccccc3)s1)CC2	17	4
Cn1ccnc1SCc1cc(=O)c(OC(=O)c2ccc(Br)o2)co1	11	3
COc1cc2[nH]c3c(=O)n(CC(=O)NCc4ccc(SC)cc4)cnc3c2cc1OC	2	-3
CCOc1nc(-c2cccc(C(F)(F)F)c2)n(-c2cccc(NC(=O)Nc3ccc(F)cc3F)c2)n1	-7	9
Cc1ccc2nc(N3CCC(C(=O)NCCC4COc5ccccc5O4)CC3)nc(C)c2c1 (stereo unspecified)	14	8
O=C(/C=C/c1ccco1)N1CCC(n2c(-c3ccccc3)nc3ccc(F)cc32)CC1	-10	-14
O=C(/C=C/c1ccc(S(=O)(=O)NC2CC2)cc1)NC1=NCCS1	11	6
CCC(C)NC(=O)NC(C(=O)NC)c1ccccc1 (stereo unspecified)	2	0
COCCN1CC(CNc2nncc(-c3ccc(Cl)cc3)n2)CC1=O (stereo unspecified)	-8	-9
CCCOc1ccccc1C=C(C#N)c1ccc([N+](=O)[O-])cc1	-4	-8
CC1(C(=O)NS(=O)(=O)c2cccc(C#N)c2)CCN1C(=O)CC1CCCCC1 (stereo unspecified)	2	-1
CCOC(=O)c1c(NC(=O)C2COc3ccccc3O2)c(-c2cccc(F)c2)cn1C (stereo unspecified)	0	12
CC(C)(C)c1nnnn1CCC1OCCCO1	-1	-7
Cc1nc(CN(C)c2nc3nonc3nc2NCc2ccccc2)cs1	8	0
CCc1ccc(-n2c(C)c(C)n3c4c(=O)n(CCCO)c(=O)n(C)c4nc23)cc1	-3	-1
CNC(=O)CSc1nnc(N2CCN(C(=O)Cc3cccc4ccccc34)CC2)s1	-11	-14
COc1ccc2nc(-c3cccc(NC(=O)c4cccc(C)c4)c3)cn2n1	-15	-20
O=C(CCCSc1nnc(-c2ccccc2)n1-c1ccccc1)N1CCN(c2cccc(Cl)c2)CC1	10	6
COc1ccc(OC)c(C=NNC(=O)c2cccc(I)c2)c1	3	-1
CCOC(=O)C1(CCOc2ccccc2)CCCN(C(=O)Cn2cccn2)C1 (stereo unspecified)	3	2
Cc1ccsc1C(=O)N1CCC(CCC(=O)Nc2ccc3c(c2)OCCO3)CC1	6	6
COCCNC(=O)c1cc(C)n2nc(-c3ccccc3)cc2n1	20	20
O=c1cc(C2CCCNC2)nc(-c2csc3c2CCCC3)[nH]1 (stereo unspecified)	0	-3
c1ccc(CCC2CCN(Cc3nc(COc4ccccc4)no3)CC2)cc1	2	-1
Cc1n[nH]c(C)c1Cc1n[nH]c(=O)n1CC1CCCCC1	19	10
CCOc1ccc(CN(Cc2ccc(F)cc2)Cc2nc(C(=O)NCc3ccncc3)co2)cc1	12	5
CCc1ccc(-n2c(-c3ccc(OC)c(OC)c3OC)nc3ccccc3c2=O)cc1	0	-2
CCCCC1C=CCN1C(=O)CN1C(=O)NC(C)(C)C1=O (stereo unspecified)	3	1
CN1CCCN=C1/C=C/c1cccs1	-7&2	-12&-3
Nc1ncc(-c2ccccc2Oc2ccccc2)cc1-c1ccc(F)cc1F	-3	-9

Ordered by count of non-hydrogen atoms (descending): some entries from above.
SMILES	NPYLR7 ag	NPYLR7 ag max-min
O=C(CCCSc1nnc(-c2ccccc2)n1-c1ccccc1)N1CCN(c2cccc(Cl)c2)CC1	10	6
CCOc1ccc(CN(Cc2ccc(F)cc2)Cc2nc(C(=O)NCc3ccncc3)co2)cc1	12	5
CCOC(=O)c1c(NC(=O)C2COc3ccccc3O2)c(-c2cccc(F)c2)cn1C (stereo unspecified)	0	12
CNC(=O)CSc1nnc(N2CCN(C(=O)Cc3cccc4ccccc34)CC2)s1	-11	-14
Cc1ccsc1C(=O)N1CCC(CCC(=O)Nc2ccc3c(c2)OCCO3)CC1	6	6
CCOC(=O)C1(CCOc2ccccc2)CCCN(C(=O)Cn2cccn2)C1 (stereo unspecified)	3	2
COc1ccc2nc(-c3cccc(NC(=O)c4cccc(C)c4)c3)cn2n1	-15	-20
Cc1nc(CN(C)c2nc3nonc3nc2NCc2ccccc2)cs1	8	0
COCCNC(=O)c1cc(C)n2nc(-c3ccccc3)cc2n1	20	20
O=c1cc(C2CCCNC2)nc(-c2csc3c2CCCC3)[nH]1 (stereo unspecified)	0	-3
Cc1n[nH]c(C)c1Cc1n[nH]c(=O)n1CC1CCCCC1	19	10
CC(C)(C)c1nnnn1CCC1OCCCO1	-1	-7
CN1CCCN=C1/C=C/c1cccs1	-7&2	-12&-3

Next compounds.
SMILES	NPYLR7 ag	NPYLR7 ag max-min
Fc1ccc(NC(=S)N(Cc2c(-c3ccccc3)noc2N2CCCCC2)CC2CCCO2)cc1 (stereo unspecified)	3	3
Cc1cc(NC(=O)c2ccccc2-c2nc(C(C)(C)C)no2)ccc1N(C)C	13	13
CCOc1ccccc1NC(=O)C1C2CC3CC(C2)CC1C3 (stereo unspecified)	2	2
Cc1nnnn1CCCN1CCC(Cc2cccc(C(=O)O)c2)CC1	2	10
CS(=O)(=O)c1ccc(-c2csc(N)n2)cc1	0	6
CC1CCN(C(=O)c2ccn(C(C)C)n2)C1 (stereo unspecified)	-3	-5
Nc1[nH]n(-c2ccccc2)c(=O)c1N=Nc1ccccc1[N+](=O)[O-]	1	3
Cc1cc(NC(=O)c2ccccc2)n(C2CCS(=O)(=O)C2)n1 (stereo unspecified)	5	5
Cc1nn(C)cc1-c1ccnc(N2CCC(c3nc4ccc(F)cc4[nH]3)CC2)n1	-7	-13
Cc1ccc(SCCn2cc(-c3cccc(O)c3)nn2)cc1	3	0
Cc1ccccc1CSc1nc(=O)[nH]c2c1CCCC2	1	-2
O=C1CSC(c2coc3ccccc3c2=O)N1c1ccc(F)cc1F (stereo unspecified)	1	-2
O=C1c2ccc(F)cc2C(=O)N1N1CCOCC1	26	32
c1ccc(-n2nnnc2N2CCCC(Nc3ccc4c(c3)OCCO4)C2)cc1 (stereo unspecified)	7	4
Cn1c(=O)n(CC(=O)NCc2ccc(Cl)cc2Cl)c2ccccc21	1	4
Cc1nn(C(CC(=O)c2ccccc2)C(=O)O)c(C)c1Cc1ccccc1 (stereo unspecified)	-16	-21
O=c1oc(-c2ccc(Oc3ccc([N+](=O)[O-])cc3)cc2)nc2ccccc12	-6	-12
Cc1cc(C(C)(C)C)c(O)c(C(C)(C)C)c1	-6	-14
Cc1ccc(S(=O)(=O)NC(C)c2cccc(Br)c2)c(C)c1 (stereo unspecified)	0	0
NC(=O)c1cnc2n1CCN(C(=O)c1cc3c(s1)CCCCC3)C2	7	0
COc1ccccc1CC1(C)C(=O)Nc2ccc(OC(F)(F)F)cc21 (stereo unspecified)	4	1
Cc1cccc(Nc2ncccc2C(=O)N[C@@H]2C[C@@H]3C[C@H]([C@H]2C)C3(C)C)c1C	-6	-17
Cc1nn2c(N3CCCC3)c3c(nc2c1-c1ccccc1)CCC3	3	3
Cc1ccc(NC(=O)CCn2cncn2)cc1	6	6
CCOC(=O)C1(Cc2ccccc2C)CCCN(Cc2cnc(N3CCOCC3)s2)C1 (stereo unspecified)	5	8
C=CCn1c(SCC(=O)c2ccc[nH]2)nc2sc3c(c2c1=O)CCC3	-4	-5
COC(=O)c1ccc(-c2nc(CN3CCCC3c3nc4ccc(F)cc4[nH]3)c(C)o2)cc1 (stereo unspecified)	-9	-12
O=C(NCC1CCN(c2nc(Cc3ccc(F)cc3)ns2)CC1)c1ccc(-c2ccccc2)cc1	-12	-19
CC(=O)c1c(C)oc2ccc(N(C(C)=O)S(=O)(=O)c3cccc4cccnc34)cc12	-7	-5
COc1ccc(CC2CCN(Cc3ccc(F)c(C(F)(F)F)c3)CC2)cc1	7	4
COc1ccc(OC)c2sc(N(Cc3cccnc3)C(=O)c3ccc(C)cc3)nc12	-7	-6
Clc1cccc(C2c3cccn3CCCN2Cc2ccncc2)c1 (stereo unspecified)	7	9
CSc1ccc(CNC(=O)C2(C)CCCN2C)cc1 (stereo unspecified)	-7	-7
CC1CCN(C(=O)c2cc(NC(=O)CSc3ccccc3)ccc2N2CCC(C)CC2)CC1	-2	4
O=C1C[C@H]2CC[C@@H](CN1)N2Cc1ccc(-c2ccccc2Cl)o1	-2	12
CN(C)C(=O)c1ccc(NC(=O)C=Cc2ccco2)cc1	-4	-9

Another view of some results above.
Structure | NPYLR7 ag | NPYLR7 ag max-min
COc1ccccc1CC1(C)C(=O)Nc2ccc(OC(F)(F)F)cc21 (stereo unspecified) | 4 | 1
NC(=O)c1cnc2n1CCN(C(=O)c1cc3c(s1)CCCCC3)C2 | 7 | 0
c1ccc(-n2nnnc2N2CCCC(Nc3ccc4c(c3)OCCO4)C2)cc1 (stereo unspecified) | 7 | 4

Further compounds follow.
SMILES	NPYLR7 ag	NPYLR7 ag max-min
C=CCNC(=O)CSc1ncnc2sc(C)c(C)c12	-1	-4
Cc1ccc(C(=O)COC(=O)c2cccc([N+](=O)[O-])c2)cc1	-3	-4
Cc1cc([N+](=O)[O-])cc(C(C)(C)C)c1O	-7	-8
COC(=O)c1sc2nc(C)nc(NCc3ccccn3)c2c1C	4	0
COC(=O)c1ccc(COC(CN2CCN(C(=O)NCc3cccc(C)c3)CC2)c2ccc(Cl)cc2)cc1 (stereo unspecified)	5	-2
Cc1cc(C(F)(F)F)nc(CCNc2nncc(-c3ccc4c(c3)OCO4)n2)n1	-6	-8
Cc1ccc(Nc2nc(NCCO)nc3nccnc23)cc1C	4	5
COc1ccccc1CN(C(=O)c1ccc(CO)cc1)C1CC1	17	7
CCn1cc(CN(Cc2sc(C)nc2C)C(C)C)cn1	5	3
CCOc1ccccc1C(=O)Nc1ccc(N2CCN(C(=O)CCC3CCCC3)CC2)nc1	-2	1
CC(C)c1nnc2n1CC(CNCCc1cccs1)CC2 (stereo unspecified)	-4	-6
O=C(NCc1ccccc1F)c1ccc(-c2cc(-c3cccc4ccccc34)[nH]n2)cc1	24	8
Cc1ncc2c(c1CNC(=O)c1ccccc1F)CCN(C(=O)CCc1ccc3c(c1)OCO3)C2	19	8
O=C(COc1ccccc1)N(CC(=O)N1CCc2sccc2C1c1ccc(Cl)cc1Cl)C1CC1 (stereo unspecified)	-2	2
COc1cccc(CN2CC(C(=O)N(C)Cc3nonc3C)CCC2=O)c1 (stereo unspecified)	1	-1
O=C(Cc1cccs1)Nc1ccc(C2SCC(=O)N2c2ccc(F)cc2)cc1 (stereo unspecified)	2	2
CCOC(=O)c1ccc2c(c1)nc(SCc1c(F)ccc(F)c1Cl)n2CCc1ccc(OC)cc1	3	-1
CN1CCN(c2ncc3c(=O)n(Cc4cccnc4)ccc3n2)CC1	-15	-21
CC(C)C(NC(=O)C12CC3CC(CC(C3)C1)C2)C(=O)N1CCC(C(N)=O)C1 (stereo unspecified)	-1	0
COc1ccccc1N1CCN(C(=O)c2csc(CSc3nnc(-c4cccnc4)n3-c3ccccc3OC)n2)CC1	10	14
Cc1c(Cl)cccc1NC(=O)Nc1ccc(Nc2cc(-n3ccnc3)ncn2)cc1	-18	-21
Cc1cc(C)cc(N2CCN(C(=O)/C=C/c3cnc[nH]3)CC2)c1	4	4
O=C(NCc1cnn(-c2ccccc2)c1)C1CC2CCCC(C1)C2=O (stereo unspecified)	0	-1
Cc1ccc(CNC(=O)N2CCCCC2CCN2CCOCC2)cc1 (stereo unspecified)	8	5
CCc1c(C)nc2c(-c3ccc(OC)cc3)c[nH]n2c1=O	-16	-25
NC(=O)c1cnc2n1CCN(C(=O)Cc1cc3c(cc1Cl)OCCO3)C2	9	6
COc1cc(/C=C2\N=C(c3ccc(C)c(C)c3)OC2=O)cc(Br)c1OC(C)=O	-3	-8
Cc1cc(C)c2c(c1C(=O)N1CCN(C(=O)c3ccco3)CC1)CC(C)(C)C2=O	-10	-12
CCn1nc(C(=O)Nc2cc(C)nn2-c2nc3ccccc3s2)cc1C	-5	-11
COc1ccc(CNC(=O)N2CCCCC2C)c(OC)c1OC (stereo unspecified)	3	2
CC(=O)Nc1cc(C)nn1-c1ccc(Cl)c(Cl)c1	-3	-1
N#CCN(Cc1ccc(Br)cc1)C1CC1	7	4
O=C(NCc1cccnc1)c1cc(C2CCCCN2C(=O)OCCF)on1 (stereo unspecified)	8	5
CCOC(=O)Cn1c(=NC(=O)c2ccn(C)n2)sc2cc3c(cc21)OCO3	1	6
CCn1ccc(C(C)NC(=O)CCS(=O)(=O)c2ccc3ccccc3c2)n1 (stereo unspecified)	-4	-10
NC(=O)CCSc1n[nH]c(=S)s1	-6	-11
C/C=C/C(=O)Nc1c(C(=O)Nc2ccc(OC)c(OC)c2)oc2ccccc12	-5	2
C=CCNC(=O)C(NC(=O)c1ccc(F)cc1)C1CCN(C(=O)CCc2ccccc2)CC1 (stereo unspecified)	-2	3
Cc1ccc(C(=O)CSc2nccn(-c3ccc(C)cc3)c2=O)cc1	21	13
CCCCN(CC(=O)N(CCc1c[nH]c2ccccc12)Cc1ccccc1)C(=O)Nc1cc(C(F)(F)F)cc(C(F)(F)F)c1	4	9
Cc1cccc(-n2nc(C(C)(C)C)cc2NC(=O)CN(Cc2ccccc2)C(=O)Nc2ccccc2Br)c1	15	25
COc1cc(-c2c(C#N)c(N)n3c(nc4ccccc43)c2C#N)ccc1O	3	13
CC(c1ccccc1)N1CCN(C(=O)NCc2ccccc2F)CC1 (stereo unspecified)	24	22
O=C(NC1CCN(c2ccccc2C(=O)NCc2ccccc2)CC1)c1ccc(F)cc1F	-2	-2
CC(C)(C)c1ccc(-c2ccnc3nc(N4CCN(S(=O)(=O)c5ccccc5C(F)(F)F)CC4)nn23)cc1	5	1
Cn1nnc2c1CCN(CCCOc1ccc(C(C)(C)C)cc1)C2	5	2
